Bioassay records from PubChem BioAssay.
Mtb H37Rv = Mycobacterium tuberculosis H37Rv growth inhibition, putative kinase inhibitor library, confirmatory dose response (AID 2842). M. tuberculosis H37Rv growth inhibition; higher % means a stronger effect; some inactives read as strong as hits. inhibition, % at 10 µg/mL, or IC90 in µg/mL where a hit was titrated. 24,000 tested, 5.2% active;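 active means confirmed in a dose series; inconclusive means mostly over 85% at the one dose but not retested; inactive means below 85% or not confirmed; about a fifth of its hits are not listed in these tables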;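 further: bacteria incubated one week before Alamar blue readout; 0% = bacteria only wells and 100% = bacteria with high antibiotic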
An asterisk follows results filed as active; u = inconclusive. The list is partial. The share of hits here may be higher or lower than overall.

SMILES	Mtb H37Rv
CC(=O)N1CCc2c(sc(NC(=O)c3cc4cc([N+](=O)[O-])ccc4s3)c2C(N)=O)C1	1.7%
Cn1c(=O)[nH]c(=O)c2c1[nH]c(=S)n2C	7.7%
O=C(NNc1ncnc2ccccc12)c1ccccc1	-9.5%
CCCSc1nnc(NC(=O)C2CC(=O)N(c3ccc(C)cc3)C2)s1 (stereo not drawn)	24.3%
Cc1cc(O)c(C(c2ccncc2)N2CCC(C)CC2)c(=O)n1Cc1ccco1 (stereo not drawn)	-4.8%
Cc1c(C(=O)NCc2nnc(SCC(=O)N3CCCCC3)o2)cccc1[N+](=O)[O-]	-7.2%
CCCCOc1ccc(C(=O)N(C)c2nnc(C34CC5CC(CC(C5)C3)C4)s2)cc1	1.2%
Cc1ccccc1NC(=O)CSc1nccn(-c2ccc(F)cc2)c1=O	-19.8%
CC1CCc2sc(NC(=O)c3ccc(F)cc3)c(C(N)=O)c2C1 (stereo not drawn)	-7.4%
O=C(COc1ccccc1)Nc1ccc(-c2cn3ccccc3n2)cc1	1.4%
Cn1c(=O)[nH]c(=O)c2c1nc(N1CCN(CCO)CC1)n2CCSc1ncccn1	1.1%
N#CC1=C(N)OC2=C(C(=O)CCC2)C1c1ccc(-c2ccc(Br)cc2)o1 (stereo not drawn)	u
Cn1c(=O)c2c(nc(SCC(=O)c3ccc(Cl)cc3)n2Cc2ccc(F)cc2)n(C)c1=O	1.0%
COc1ccc(-c2nc(SCc3ccc(F)cc3)c3c(=O)n(C)c(=O)n(C)c3n2)cc1	9.0%
Cc1ccc(C)c(Nc2nc(N3CCN(C)CC3)nc3nccnc23)c1	4.8%
CCOC(=O)c1nn(-c2ccc(F)cc2)c(=O)c2c(NC(=O)C3CCCC3)scc12	0.3%
CCOc1ccc(/C=C2/Oc3ccc(C(=O)OC)cc3C2=O)cc1OCC	-6.2%
Cc1cc(C)cc(NC(=O)CC(C(=O)O)N2CCN(C)CC2)c1 (stereo not drawn)	-0.3%
N#Cc1c(NC(=O)C2COc3ccccc3O2)sc2c1CCN(Cc1ccccc1)C2 (stereo not drawn)	-2.7%
CCN1CCc2c(sc(NC(=O)COc3ccccc3)c2C(N)=O)C1	1.4%
CCOC(=O)c1nn(-c2ccc(OC)cc2)c(=O)c2c(NC(=O)c3cccc(F)c3)scc12	-3.6%
CCCCOc1ccc(C(=O)Nc2nnc(-c3ccc(F)cc3)s2)cc1	-1.4%
CCCC(CCC)C(=O)Nc1scc2c(C(=O)OCC)nn(-c3ccccc3)c(=O)c12	-8.0%
CCS(=O)(=O)c1ccc(CC(=O)Nc2nnc(-c3ccc(F)cc3)o2)cc1	-7.8%
Cc1c(C(N)=O)sc2ncn(CC(=O)Nc3ccccc3F)c(=O)c12	-6.2%
Cc1csc2ncc(C(=O)Nc3ccc(Oc4ccccc4)cc3)c(=O)n12	3.4%
O=C(CSc1nnc2ccc(-c3cccs3)nn12)NCc1ccc(F)cc1	-1.7%
CCN(CC)CCSc1nc(N)c(NC(=O)c2cccc([N+](=O)[O-])c2C)c(=O)[nH]1	-3.3%
CC(C)c1nnc(NC(=O)c2ccc3ccccc3c2)s1	6.5%
O=C(Nc1nnc(-c2cc(Cl)ccc2Cl)o1)c1ccc(F)cc1	82.5%
O=C(CCCS(=O)(=O)c1ccc(F)cc1)Nc1ncnc2sccc12	7.4%
O=C(COc1ccc(Cl)cc1Cl)Nc1nnc(-c2ccc(F)cc2)o1	55.9%
Cc1ccc(C2CC(c3cccs3)=NN2C(=O)CSc2nc3c(cnn3-c3ccc(S(N)(=O)=O)cc3)c(=O)[nH]2)cc1 (stereo not drawn)	52.5%
Cn1c(=O)[nH]c(=O)c2c1nc(NNC=O)n2Cc1ccccc1	-1.9%
O=C(Nc1ccc(Br)cc1)c1cccc(Nc2nc(-c3ccccc3)c3cc(Cl)ccc3n2)c1	3.7%
O=C(CC1CCCC1)Nc1c(C(=O)Nc2ccc([N+](=O)[O-])cc2)oc2ccccc12	17.5%
COc1cccc(C(=O)Nc2c(C(=O)Nc3ccc4c(c3)OCO4)oc3ccccc23)c1	5.9%
Cc1cn2c3c(=O)[nH]c(=O)n(C)c3nc2n1CCN1CCN(CCCc2ccccc2)CC1	-0.2%
O=C(Cc1ccccc1)Nc1nnc(-c2cc(Cl)ccc2Cl)o1	84.7%
O=C(NNc1nc2c(Cl)cccc2s1)c1coc2ccccc2c1=O	11.1µg/mL*
COc1ccc(C(=O)Nc2c(N)nc(SCC(=O)NCc3ccccc3)[nH]c2=O)cc1OC	-17.9%
COc1ccc(NC(=O)CSc2nnc3ccc(-c4cccnc4)nn23)cc1	-16.4%
COc1cccc(N2C(=O)CCC2=O)c1	2.1%
CCCC(=O)Nc1nc2ccc(OCC)cc2s1	72.3%
Cc1cccc(Cn2c(SCc3c(F)cccc3Cl)nc3c2c(=O)[nH]c(=O)n3C)c1	2.1%
CC(=O)Nc1cccc(NC(=O)C(=O)NCC(c2ccc(C)cc2)N2CCN(C)CC2)c1 (stereo not drawn)	-8.8%
COc1ccccc1OCCCN1C(=O)C(=O)c2ccccc21	-19.2%
Cc1ccc(S(=O)(=O)c2cnc(SCC(=O)Nc3ccccc3Cl)[nH]c2=O)cc1	-17.0%
COc1ccc2sc(Nc3ccccc3C#N)nc2c1	2.9%
CC(C)NC(=O)c1c(O)nc2sccn2c1=O	5.4%
Cc1c(O)c(CN2CCN(C)CC2)cc2c(-c3ccccc3)cc(=O)oc12	1.1%
O=C(CSc1ccc2nnc(-c3ccncc3)n2n1)Nc1cccc([N+](=O)[O-])c1	4.9%
CCOC(=O)Nc1c(C(=O)Nc2ccc(F)c(F)c2)oc2ccccc12	1.5%
CCOC(=O)c1[nH]c2ccccc2c1NC(=S)Nc1cccc(C)c1C	4.3%
CC(C)c1nnc(NC(=O)c2ccc(Cl)c([N+](=O)[O-])c2)s1	69.6%
COc1ccc(C2C(C#N)=C(SCC(=O)Nc3ccc(Cl)cc3)NC3=C2C(=O)CC(C)(C)C3)cc1 (stereo not drawn)	8.1%
COc1ccc(-c2nnc3ccc(SCC(=O)Nc4ccc5c(c4)OCO5)nn23)cc1	-0.9%
Fc1ccc(-c2nnc(NCCCN3CCOCC3)c3ccccc23)cc1	7.5%
Cc1ccc(C)c2[nH]c(=O)c(CCNC(=O)Cc3ccccc3)cc12	-6.1%
COc1ccc(N2CCN(c3nc4c(c(=O)[nH]c(=O)n4C)n3Cc3ccccc3Cl)CC2)cc1	8.1%

(continued)
SMILES	Mtb H37Rv
O=C(CSc1nc2ccccc2o1)OCC(=O)c1ccc(Cl)cc1	-17.2%
CN(C)c1nc2c(c(=O)[nH]c(=O)n2C)n1CCSc1nc2ccccc2o1	3.1%
CCOC(=O)c1oc2ccccc2c1NC(=O)c1cccc(Oc2ccccc2)c1	45.4%
COc1ccc(CC(=O)Nc2nnc(-c3cccc(C)c3)s2)cc1	6.4%
CCOC(=O)c1nn(-c2ccc(F)cc2)c(=O)c2c(NC(=O)c3ccc(C)c([N+](=O)[O-])c3)scc12	-3.7%
O=C(Cc1cccs1)Nc1c(C(=O)Nc2ccc3c(c2)OCO3)oc2ccccc12	-10.7%
COc1ccc2nc(-c3cccc(NC(=O)c4cccc(F)c4)c3)cn2n1	8.2%
O=C1CC(=O)N(c2ccccc2)N1c1ccccc1	-6.8%
Cc1cccc(Cn2c(SCCCO)nc3c2c(=O)[nH]c(=O)n3C)c1	9.1%
O=C(CSc1nnc2[nH]c(=O)ccn12)Nc1ccc(Br)cc1	16.8%
Cc1nnc(Sc2nc3c(c(=O)[nH]c(=O)n3C)n2CCc2ccccc2)s1	2.0%
CCOC(=O)c1cnc2ccc(Oc3ccccc3)cc2c1Nc1cccc(C(=O)O)c1	2.0%
Cc1cccc(-n2c(Cc3cc(=O)[nH]c(=O)[nH]3)n[nH]c2=S)c1	0.0%
Brc1cccc2sc(N3CCCC3)nc12	6.7%
O=C(Nc1c(C(=O)Nc2ccc(F)c(F)c2)oc2ccccc12)c1ccccc1C(F)(F)F	-6.6%
N#Cc1ccc(C(=O)Nc2cccc3c2C(=O)c2ccccc2C3=O)cc1	-11.6%
COc1ccc(-c2nnc3c4cc(F)cc(F)c4n(Cc4cccc(F)c4)cc2-3)cc1	16.8%
CCN(CC)c1ccc(/C=N/Nc2ncnc3nc[nH]c23)cc1	28.2%
O=C(CSc1ccc2nnc(-c3ccc(Cl)cc3)n2n1)NCc1ccc(F)cc1	-5.5%
CCOC(=O)CCCSc1nc2sc3c(c2c(=O)[nH]1)CCCC3	5.9%
O=C(N/N=C/c1ccccc1O)c1cc(Br)ccc1O	15.9%
Cc1cc(C)cc(OCC(=O)Nc2ccc(C(=O)O)cc2)c1	-11.4%
CCCCC(=O)Nc1scc2c(C(=O)OCC)nn(-c3ccc(F)cc3)c(=O)c12	13.2%
Cc1cc(C)nc(Nc2ccc(NS(=O)(=O)/C=C/c3ccccc3)cc2)n1	2.5%
COc1ccc(OC)c2sc(N3CCc4ccccc4C3)nc12	8.7%
CCOC(=O)c1ccc(NC(=O)CSc2nc3c(c(=O)n2Cc2ccccc2)SC(C)C3)cc1 (stereo not drawn)	9.0%
CCCOc1ccc(C(=O)Nc2ncc(Cc3cccc(Cl)c3)s2)cc1	-4.5%
Cc1nc2ccccc2c(C(=O)O)c1C(=O)Nc1ccccc1	21.5%
COc1cccc(Cn2cc(S(=O)(=O)c3ccc(Cl)cc3)c(=O)c3cc(F)ccc32)c1	5.0%
O=C(CSc1ccc2nnc(-c3ccncc3)n2n1)Nc1ccc(F)cc1	-9.4%
CCOc1ccc(CC(=O)NCCc2cc3c(OC)ccc(OC)c3[nH]c2=O)cc1	3.0%
COc1ccc(-n2c(SCC(=O)NCCc3ccccc3)nc3c([nH]c4ccccc43)c2=O)cc1	7.6%
COC(=O)c1cc(C)sc1NC(=O)CC1Sc2ccc(C(F)(F)F)cc2NC1=O (stereo not drawn)	-9.2%
Cc1c(Cc2ccc3c(c2)OCO3)sc(NC(=O)c2cc(Cl)sc2Cl)c1C#N	36.7%
CCCC(=O)Nc1c(C(=O)Nc2ccc(OC)c(OC)c2)oc2ccccc12	8.3%
COc1ccc(CCNC(=O)c2cnc3sccn3c2=O)cc1OC	3.4%
O=C(Nc1ccc(S(=O)(=O)Nc2nccs2)cc1)c1ccc(Cl)cc1Cl	27.8%
Cc1ccc(OCC(=O)N/N=C/c2ccccc2O)cc1	-22.1%
O=C(Nc1ccc2c3c(cccc13)C(=O)N2)c1ccccc1[N+](=O)[O-]	15.8%
Cc1cc(-c2ccccc2)nc(SCC(=O)O)n1	3.3%
COC(=O)c1sc2ncn(CC(=O)NCCc3ccccc3)c(=O)c2c1C	-6.7%
CCOC(=O)c1nn(-c2ccc(Cl)cc2)c(=O)c2c(NC(=O)c3cc4ccccc4o3)scc12	-2.4%
O=C(Cc1cc(=O)[nH]c(=O)[nH]1)NCc1ccco1	-10.2%
COc1ccc(-n2c(=O)cc(N3CCCC3)[nH]c2=O)cc1	-4.5%

Among those listed so far, 23 have an NH in an aromatic ring:
SMILES	Mtb H37Rv
Cn1c(=O)[nH]c(=O)c2c1[nH]c(=S)n2C	7.7%
Cn1c(=O)[nH]c(=O)c2c1nc(N1CCN(CCO)CC1)n2CCSc1ncccn1	1.1%
CCN(CC)CCSc1nc(N)c(NC(=O)c2cccc([N+](=O)[O-])c2C)c(=O)[nH]1	-3.3%
Cc1ccc(C2CC(c3cccs3)=NN2C(=O)CSc2nc3c(cnn3-c3ccc(S(N)(=O)=O)cc3)c(=O)[nH]2)cc1 (stereo not drawn)	52.5%
Cn1c(=O)[nH]c(=O)c2c1nc(NNC=O)n2Cc1ccccc1	-1.9%
Cc1cn2c3c(=O)[nH]c(=O)n(C)c3nc2n1CCN1CCN(CCCc2ccccc2)CC1	-0.2%
COc1ccc(C(=O)Nc2c(N)nc(SCC(=O)NCc3ccccc3)[nH]c2=O)cc1OC	-17.9%
Cc1cccc(Cn2c(SCc3c(F)cccc3Cl)nc3c2c(=O)[nH]c(=O)n3C)c1	2.1%
Cc1ccc(S(=O)(=O)c2cnc(SCC(=O)Nc3ccccc3Cl)[nH]c2=O)cc1	-17.0%
CCOC(=O)c1[nH]c2ccccc2c1NC(=S)Nc1cccc(C)c1C	4.3%
Cc1ccc(C)c2[nH]c(=O)c(CCNC(=O)Cc3ccccc3)cc12	-6.1%
COc1ccc(N2CCN(c3nc4c(c(=O)[nH]c(=O)n4C)n3Cc3ccccc3Cl)CC2)cc1	8.1%
CN(C)c1nc2c(c(=O)[nH]c(=O)n2C)n1CCSc1nc2ccccc2o1	3.1%
Cc1cccc(Cn2c(SCCCO)nc3c2c(=O)[nH]c(=O)n3C)c1	9.1%
O=C(CSc1nnc2[nH]c(=O)ccn12)Nc1ccc(Br)cc1	16.8%
Cc1nnc(Sc2nc3c(c(=O)[nH]c(=O)n3C)n2CCc2ccccc2)s1	2.0%
Cc1cccc(-n2c(Cc3cc(=O)[nH]c(=O)[nH]3)n[nH]c2=S)c1	0.0%
CCN(CC)c1ccc(/C=N/Nc2ncnc3nc[nH]c23)cc1	28.2%
CCOC(=O)CCCSc1nc2sc3c(c2c(=O)[nH]1)CCCC3	5.9%
CCOc1ccc(CC(=O)NCCc2cc3c(OC)ccc(OC)c3[nH]c2=O)cc1	3.0%
COc1ccc(-n2c(SCC(=O)NCCc3ccccc3)nc3c([nH]c4ccccc43)c2=O)cc1	7.6%
O=C(Cc1cc(=O)[nH]c(=O)[nH]1)NCc1ccco1	-10.2%
COc1ccc(-n2c(=O)cc(N3CCCC3)[nH]c2=O)cc1	-4.5%
